# Screens deposited in PubChem BioAssay by National Center for Advancing Translational Sciences (NCATS).
# LASV entry inh – blocks Lassa virus binding to or entry into cells; hit rate 1.2% among 300,000; Potency, µM (highest dose often 37.9 µM), for inactives: at the highest dose activity change, negative = inhibition, most hits filed as inhibitors; Lassa virus pseudotype entry inhibition, cell reporter; control for the full effect not named in the record; active means well fitted inhibition curve with a large enough effect; inconclusive means small, poorly fitted or top-dose-only effect, or effect the other way; inactive means flat fitted curve, though single readings scatter; tested in HEK293 cells; also: % is scaled to controls: 0 for no effect and ±100 for the full control effect; nearly all actives have a fitted effect of over 50% in size; luciferase read-out
# 2A StopGo – FMDV 2A StopGo reporter, luciferase signal | human cells with a luciferase reporter of 2A StopGo recoding; control for the full effect not named in the record | Potency, µM (top dose mostly 57.9 µM), for inactives: top-dose signal change, negative = less light | hit rate 1.2% among 410,000 | AID 1159524; active = well fitted falling curve with a large enough effect; inconclusive = small, poorly fitted or top-dose-only effect; inactive = no such curve, though single readings can be large or run the other way; tested in HEK293T cells; also: % is scaled to controls: 0 for no effect and ±100 for the full control effect; nearly all actives have a fitted effect of over 45% in size; luciferase light after 4 h
# Marburg entry inh – inhibitors of Marburg virus binding or cell entry; AID 540276; hit rate 1.8% among 300,000; Marburg virus pseudotyped entry inhibition, cell reporter; control for the full effect not named in the record; about a third of the inactives were read at about 46 µM; Potency, µM (series often up to 37.8 µM), without a hit: top-dose activity change, negative = inhibition, actives largely listed as inhibitors; active = well fitted inhibition curve with a large enough effect; inconclusive = small, poorly fitted or top-dose-only effect, or effect the other way; inactive = flat fitted curve, though single readings scatter; tested in HEK293 cells; about a fifth of its hits are not listed in these tables; also: % is scaled to controls: 0 for no effect and ±100 for the full control effect; luciferase read-out
# SARS PLP yeast – inhibitors of SARS-CoV papain-like protease in yeast. S. cerevisiae expressing SARS-CoV PLpro, growth rescue; control for the full effect not named in the record. Potency, µM (highest dose often 32.9 µM), inactives show top-dose activity, positive = growth rescue. hit rate 0.19% among 330,000; also: 0% is about no effect; nearly all actives have a fitted effect of over 55% in size; growth read by luminescence after 48 h
# NS1 inh – blocks influenza NS1 protein function | S. cerevisiae slowed by influenza A NS1, growth recovery by OD600 | Potency, µM (titrated, usually from 46.1 µM), for the others: at the top dose activity, positive = more growth | hit rate 0.4% among 270,000 | AID 2326; also: actives are rising curves; nearly all actives have a fitted effect of over 50% in size
#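 In this qHTS, NS1 from influenza A is expressed in budding yeast, where it slows growth. Cells are switched from glucose to 2% galactose medium (pH 6.0, -URA), treated with compound, and growth recovery is read at OD600.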
# RE007 growth inh – less growth of the S. pombe RE007 Vpr strain | hit rate 0.21% among 360,000 | Potency, µM (top dose mostly 92.2 µM), for the others: at the highest dose activity change, negative = less growth | S. pombe RE007 Vpr strain, BacTiter-Glo ATP luminescence, 24 h; control for the full effect not named in the record; active = well fitted falling curve with a large enough effect; inconclusive = small, poorly fitted or top-dose-only effect; inactive = no such curve, though single readings can be large or run the other way;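 also: % is scaled to controls: 0 for no effect and ±100 for the full control effect; nearly all actives have a fitted effect of over 50% in size; the assay follows cell death caused by Vpr and the record does not say whether a fall means rescue or toxicity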
#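 Fission yeast strain RE007, carrying one chromosomally integrated HIV-1 vpr copy, was seeded at OD 0.01 in PMG+AL medium with 23 nL pinned compound. After 24 h at 30 °C and 99% humidity, viability was read by BacTiter-Glo luminescence.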
# Cruzain inh noDet – inhibitors of Trypanosoma cruzi cruzain without detergent; AID 1476; hit rate 2.3% among 200,000; P25779; purified cruzain, Z-FR-AMC fluorescence, no detergent; Potency, µM, for inactives: max response, negative = inhibition, most hits filed as inhibitors; active = well fitted curve in the direction sought with a large enough effect; inconclusive = small, poorly fitted or top-dose-only effect, or another doubt; inactive = no such curve, though single readings can be large; an effect the other way counts as inactive or inconclusive;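 also: plate controls were enzyme without inhibitor for no effect and buffer without enzyme for full effect; nearly all actives have a fitted effect of over 40% in size; top concentration of the series not given in the record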
# Target sequence (P25779 123-467 limits assumed): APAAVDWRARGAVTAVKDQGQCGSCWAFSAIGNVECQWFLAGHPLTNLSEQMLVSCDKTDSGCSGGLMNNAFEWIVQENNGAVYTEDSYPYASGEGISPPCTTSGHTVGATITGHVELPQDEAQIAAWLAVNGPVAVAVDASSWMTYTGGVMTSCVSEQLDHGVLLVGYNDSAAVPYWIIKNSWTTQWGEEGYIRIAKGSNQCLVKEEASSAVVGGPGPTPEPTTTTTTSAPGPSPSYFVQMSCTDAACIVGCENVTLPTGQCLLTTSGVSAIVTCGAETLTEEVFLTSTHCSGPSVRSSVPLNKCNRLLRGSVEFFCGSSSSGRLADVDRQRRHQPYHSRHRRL
#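 Purified cruzain at 1.5 nM, pre-incubated 15 min with compound at room temperature in 100 mM sodium acetate pH 5.5, 5 mM DTT, 0.00005% Triton X-100. Reaction started with 2 uM Z-FR-AMC; AMC fluorescence increase over 60 s gives rate.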
# Cruzain Triton – inhibitors of Trypanosoma cruzi cruzain with detergent; P25779; purified cruzain, Z-FR-AMC fluorescence, 0.01% Triton; Potency, µM, without a hit: max response, negative = inhibition, usual class: inhibitors; hit rate 0.43% among 200,000; AID 1478; active = well fitted curve in the direction sought with a large enough effect; inconclusive = small, poorly fitted or top-dose-only effect, or another doubt; inactive = no such curve, though single readings can be large; an effect the other way counts as inactive or inconclusive;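 also: plate controls were neutral wells for no effect and buffer without enzyme for full effect; nearly all actives have a fitted effect of over 40% in size; top concentration of the series not given in the record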
#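 Enzyme 1.5 nM, Z-FR-AMC 2 uM, NaOAc 100 mM pH 5.5, DTT 5 mM, Triton X-100 0.01%; 15 min RT compound preincubation; kinetic ex360/em450, 60 s delta.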
# * = called active by the depositor; ? = inconclusive; · = no result given; [ ] = dose if it differs, or a comment. Unless noted, calls follow the shape of the dose curve; as a rule, active means well fitted rising curve with a large enough effect; inconclusive means small, poorly fitted or top-dose-only effect; inactive means no such curve, though single readings can be large or run the other way. Potency is read from the fitted curve at half-maximal effect.
canonical_smiles	LASV entry inh	2A StopGo	Marburg entry inh	SARS PLP yeast	NS1 inh	RE007 growth inh	Cruzain inh noDet	Cruzain Triton
COc1ccc(C(=O)NCC(=O)N/N=C(\C)c2ccco2)cc1OC	29%	-3%	?	0%	3%	-8%	·	·
O=C(CN1CCN(S(=O)(=O)c2ccc(F)cc2)CC1)NC1CCCC1	1%	-14%	16%	-6%	11%	-18%	·	·
C#CCN1C(=O)S/C(=C\c2cc3c(cc2OC)OCO3)C1=O	1%	-12%	0%	3%	-3%	-8%	·	·
CCSc1nc2ccccc2c(=O)n1Cc1ccc(F)cc1	1%	-22%	16%[46.1 µM]	1%	·	2%	·	·
Cc1c(C(C)NC(=O)c2ccc3nc(Cc4ccccc4F)oc3c2)cnn1C (stereo not drawn)	·	2%	·	-4%	-2%	11%	·	·
Cc1ccc(/C=N/NC(=O)c2c(C)nc3ccc(Br)cn23)cc1	·	16%	·	7%	?	9%	·	·
Cc1cc(C)c(S(=O)(=O)NCC(c2ccco2)N2CCc3ccccc3C2)c(C)c1 (stereo not drawn)	?	25%	14%	1%	·	-8%	·	·
O=C(/C=C/c1ccco1)N1CCC(Cc2ccccc2)CC1	10%	32%[activator]	?	-2%	·	12%	·	·
O=C(CCCOc1ccccc1)NC1CCCc2ccccc21 (stereo not drawn)	13%	14%	-2%	19%	-6%	1%	-2%	-3.0%
CN1CC(C(=O)c2ccc(Cl)cc2)C(c2ccc(N(C)C)cc2)C1 (stereo not drawn)	?	-24%	?	-1%	4%	-13%	·	·
Cc1ccc(CNC(=O)c2ccc3c(=O)n(-c4ccccc4)c(=O)[nH]c3c2)cc1	-11%[46.1 µM]	2%	15%[46.1 µM]	·	·	·	1%	-0.2%
COc1cc(CNCCSc2nnnn2C)ccc1OCc1ccc(Cl)cc1Cl	-3%[46.1 µM]	-10%	?	·	·	·	8%	-3.7%
CN(C)c1ccc(-c2nn3c(-c4ccc(Cl)cc4Cl)nnc3s2)cc1	·	·	-7%	6%	14%	·	?	2.1%
Cc1cc(C(=O)Nc2cccc(-c3ccc(N4CCOCC4)nn3)c2)ccc1[N+](=O)[O-]	?	-17%	?	-2%	·	11%	·	·
Cc1cc(C(=O)NNC(=S)NCC(C)C)no1	20%	-8%	18%	2%	5%	-3%	0%	4.3%
CC(=O)Nc1c(Cl)cc([N+](=O)[O-])c2ccccc12	?	-6%	?	-4%	-22%	0%	-5%	-7.7%
CN(C)c1ccnc(Nc2ccc(O)cc2)c1C#N	2%	35%[activator]	-1%[46.1 µM]	-1%	·	-2%	·	·
O=C(NCCc1ccccc1)c1ccc2c(c1)N(Cc1ccc(F)cc1)C(=O)c1ccccc1S2	1%[46.1 µM]	4%	·	·	·	·	?	-1.9%
COc1ccc(NC(=O)CCc2nnc3ccc(N4CCC5(CC4)OCCO5)nn23)cc1	-11%[46.1 µM]	-9%	-7%[46.1 µM]	1%	3%	16%	·	·
CCOC(=O)CSc1nc2c(c(-c3ccc(C)o3)c1C#N)CCCC2	-4%	-2%	19%	0%	-17%	-14%	23%	-11%
Cc1ccc(C(=O)N[C@H](C(=O)OCc2cc(=O)oc3cc(C)ccc23)C(C)C)cc1	8%	28%	?	2%	2%	12%	5%	-0.5%
Cc1ccc(C)c(N2CCN(C(=O)CCC(=O)Nc3nnc(C(F)(F)F)s3)CC2)c1	·	-20%	·	3%	-22%	8%	·	·
Cc1cc(C)c(S(=O)(=O)c2ccccc2)c(OC(=O)c2c(F)cccc2Cl)n1	-1%	-6%	-17%	-4%	3%	2%	-3%	2.4%
COc1ccccc1-c1nnc(SCC(=O)O)n1-c1ccccc1	15%	7%	-15%[46.1 µM]	0%	2%	-26%	·	·
CSCC(=O)NC1CCCN(C2Cc3ccccc3C2)C1 (stereo not drawn)	·	-22%	·	-1%	?	0%	·	·

# The closing five compounds of the section before come first, to join the parts.
canonical_smiles	LASV entry inh	2A StopGo	Marburg entry inh	SARS PLP yeast	NS1 inh	RE007 growth inh	Cruzain inh noDet	Cruzain Triton
Cc1ccc(C(=O)N[C@H](C(=O)OCc2cc(=O)oc3cc(C)ccc23)C(C)C)cc1	8%	28%	?	2%	2%	12%	5%	-0.5%
Cc1ccc(C)c(N2CCN(C(=O)CCC(=O)Nc3nnc(C(F)(F)F)s3)CC2)c1	·	-20%	·	3%	-22%	8%	·	·
Cc1cc(C)c(S(=O)(=O)c2ccccc2)c(OC(=O)c2c(F)cccc2Cl)n1	-1%	-6%	-17%	-4%	3%	2%	-3%	2.4%
COc1ccccc1-c1nnc(SCC(=O)O)n1-c1ccccc1	15%	7%	-15%[46.1 µM]	0%	2%	-26%	·	·
CSCC(=O)NC1CCCN(C2Cc3ccccc3C2)C1 (stereo not drawn)	·	-22%	·	-1%	?	0%	·	·
O=C(COC(=O)CCC1CCCC1)Nc1ccc(Cl)cc1F	-1%	-11%	-9%	2%	-5%	·	0%	-11%
CCC(C)N1CC(O)=C(c2nc3ccccc3[nH]2)C1=N (stereo not drawn)	?	57%[activator]	25%	4%	-13%	4%	-17%	-5.0%
COc1ccc(/C=N/NC(=O)c2cc(-c3cccnc3)nc3ccccc23)c(OC)c1	0%	-19%	22%[46.1 µM]	1%	·	-4%	·	·
O=S(=O)(Nc1ccccc1Cl)c1cccc2nsnc12	·	8%	·	-16%	-13%	-16%	·	·
CCCNS(=O)(=O)c1cccc2cccnc12	·	16%	·	-3%	?	-10%	-10%	3.4%
CCOC(=O)C1CCN(C(=O)CN(c2cc(Cl)ccc2OC)S(=O)(=O)c2ccccc2)CC1	?	3%	26%	?	3%	-27%	·	·
CCOC(=O)c1sc(=S)n(C)c1C	-9%	-3%	-1%	4%	0%	-6%	-12%	-0.9%
CCOc1ccc(C(=O)c2cn(CC(=O)Nc3ccc4c(c3)OCO4)c3ccc(OCC)cc3c2=O)cc1	1%[46.1 µM]	-21%	10%[46.1 µM]	·	·	·	-3%	-1.8%
COc1ccc(NC(=O)O/N=C/c2ccncc2)cc1	-15%[46.1 µM]	25%	7%[46.1 µM]	1%	·	2%	·	·
O=[N+]([O-])c1cc2c(c(CSc3nnc(Nc4ccccc4)s3)c1)OCOC2	-2%	-23%	-2%	3%	9%	2%	?	-0.8%
O=C(CN1CCN(Cc2ccccc2)CC1)NC(=O)NC1CCCCC1	24%	-16%	-9%	0%	-6%	12%	3%	4.0%
Nc1ccc(Oc2cccc(Oc3ccc(N)cc3)c2)cc1	?	10µM*	?	-7%	·	70%	·	·
COc1ccccc1C(=O)NCCCCNC(=O)c1ccccc1OC	2%	-4%	-1%	·	·	-4%	·	·
CCC(=O)c1ccc(OCCN2CCOCC2)cc1	18%	0%	-7%	7%	-12%	-11%	5%	7.7%
CC1CN(c2nc(N(C)c3ccccc3)nc(N)c2[N+](=O)[O-])CC(C)O1 (stereo not drawn)	2%[46.1 µM]	?	-5%[46.1 µM]	9%	-9%	12%	·	·
Cc1cccc(N2CCCn3c2nc2c3c(=O)n(CCN3CCOCC3)c(=O)n2C)c1	?	-1%	?	-4%	-11%	-8%	5%	-16%
Cc1cccc(CNC(=O)c2ccc(NC(=O)C3=CSCCO3)cc2)c1	·	15%	·	0%	-7%	-7%	·	·
Cc1ccccc1NC(=O)Cc1nc(COC(=O)c2ccc(Cl)c(S(N)(=O)=O)c2)cs1	?	-4%	-6%	2%	·	11%	·	·
CCn1c(N)c(C(=O)NCc2ccco2)sc1=S	-11%	-21%	-1%	12%	?	11%	?	-6.4%
COc1ccc(Cl)cc1NC(=O)CCN1C(=O)C2CC=CCC2C1=O (stereo not drawn)	-1%	-19%	1%	-8%	-1%	17%	·	·
COc1cccc(CNC(=O)c2nn(-c3ccc(C)cc3)c(=O)c3c2c2ccccc2n3C)c1	7%[46.1 µM]	-7%	-3%[46.1 µM]	·	·	·	10%	-1.8%
Cc1cc(NC(=O)CCN2CCN(C)CC2)ccc1Br	?	-12%	?	-2%	-3%	0%	·	·
COc1cc(NCCC(=O)c2cccs2)c(OC)cc1Cl	?	-5%	?	-5%	·	-28%	·	·
CCOc1ccc(-c2noc(-c3cccnc3)n2)cc1OC	6%	28%	-28%	1%	-9%	-7%	?	0.7%
Cn1cc(SCC(=O)NC2CCCC2)c2ccccc21	·	8%	·	-4%	-13%	-25%	·	·
O=C(C1CCN(S(=O)(=O)c2cnc[nH]2)CC1)N1CCc2ccccc2C1	7%	-21%	7%[46.1 µM]	1%	6%	19%	-2%	1.7%

# Some values from the entries so far:
# Reading for `O=S(=O)(Nc1ccccc1Cl)c1cccc2nsnc12` under 2A StopGo: 8%
# Reading for `O=C(CN1CCN(Cc2ccccc2)CC1)NC(=O)NC1CCCCC1` under Cruzain Triton: 4.0%
# Reading for `CCOc1ccc(C(=O)c2cn(CC(=O)Nc3ccc4c(c3)OCO4)c3ccc(OCC)cc3c2=O)cc1` under LASV entry inh: 1%[46.1 µM]
# Reading for `COc1cc(CNCCSc2nnnn2C)ccc1OCc1ccc(Cl)cc1Cl` under 2A StopGo: -10%
# Reading for `CN(C)c1ccc(-c2nn3c(-c4ccc(Cl)cc4Cl)nnc3s2)cc1` under SARS PLP yeast: 6%
# Reading for `O=C(CCCOc1ccccc1)NC1CCCc2ccccc21` (stereo not drawn) under SARS PLP yeast: 19%

# Only Cruzain inh noDet, for 2 of the compounds above:
Structure | Cruzain inh noDet
CCOc1ccc(-c2noc(-c3cccnc3)n2)cc1OC | ?
O=C(COC(=O)CCC1CCCC1)Nc1ccc(Cl)cc1F | 0%
